Bioassay records as filed in PubChem.
DT40 TDP1 CPT = qHTS for Inhibitors of human tyrosyl-DNA phosphodiesterase 1 (TDP1): qHTS in cells in presence of CPT; chicken DT40 Tdp1-/-;hTDP1 cells + 20 nM CPT, ATP luminescence, 48 h; Potency, µM (top dose mostly 46.2 µM), inactives show top-dose activity change, negative = growth inhibition, actives largely listed as inhibitors; hit rate 12% among 420,000; further: nearly all actives have a fitted effect of over 55% in size
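Cell growth measured by CellTiter-Glo luminescence after a minimum 48 h, 37 C compound exposure with 20 nM CPT in Tdp1-knockout DT40 cells stably expressing hTDP1, seeded 400/well; qHTS titration format.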
FEN1 inhibitor = qHTS Assay for the Inhibitors of Human Flap endonuclease 1 (FEN1); P39748; Recombinant FEN1 flap cleavage, fluorescence, 15 min; Potency, µM (series often up to 114 µM), for the others: at the top dose activity change, negative = inhibition, usual class: inhibitors; hit rate 0.35% among 390,000; AID 588795, 2011; further: nearly all actives have a fitted effect of over 65% in size
Target sequence (P39748 whole entry, looked up): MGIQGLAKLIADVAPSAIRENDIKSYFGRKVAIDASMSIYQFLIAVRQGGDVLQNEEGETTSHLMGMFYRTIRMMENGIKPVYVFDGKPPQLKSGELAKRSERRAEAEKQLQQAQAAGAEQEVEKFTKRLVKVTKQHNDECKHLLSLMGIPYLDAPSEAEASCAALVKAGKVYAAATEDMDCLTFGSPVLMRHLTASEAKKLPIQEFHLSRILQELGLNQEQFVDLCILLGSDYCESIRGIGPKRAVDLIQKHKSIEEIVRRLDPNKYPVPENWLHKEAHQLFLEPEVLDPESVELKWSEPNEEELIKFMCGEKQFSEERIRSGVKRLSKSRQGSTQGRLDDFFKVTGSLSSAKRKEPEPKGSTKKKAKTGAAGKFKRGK
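Reaction started by adding substrate (50 nM final) to 10 nM enzyme after 15 min room-temperature compound preincubation. Reads at 0 and 15 min, with data normalized and fitted to a four-parameter Hill equation.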
Active calls of the source: *. The call rests on the fitted dose curve; in most records, active means well fitted curve in the direction sought with a large enough effect; inconclusive means small, poorly fitted or top-dose-only effect, or another doubt; inactive means no such curve, though single readings can be large; an effect the other way counts as inactive or inconclusive. On the % scale 0 is the no-effect control and ±100 the full control effect; potency means the concentration at half of the fitted maximal effect.

How did CCOC(=O)C1=C(N)OC2=C(C(=O)CC(C)(C)C2)C1c1cccnc1 (stereo not given) do in these assays?
DT40 TDP1 CPT: -3.8%; FEN1 inhibitor: -17.0%

How did Cn1cc([N+](=O)[O-])c(C(=O)NCc2cc3ccccc3[nH]2)n1 do in these assays?
DT40 TDP1 CPT: -4.4%; FEN1 inhibitor: 11.6%

Results for Cc1ccc(S(=O)(=O)NC(=O)c2cccc(C)c2)cc1 ?
DT40 TDP1 CPT: 10.9%; FEN1 inhibitor: -16.9%

What do the screens show for `COCCn1c(SCC(=O)N2CCCc3ccccc32)nc2ccccc2c1=O`?
DT40 TDP1 CPT: inconclusive; FEN1 inhibitor: -18.5%

How did CC(/C=C/c1ccc2c(c1)OCO2)=N\NC(=O)C(O)c1ccccc1 (stereo not given) do in these assays?
DT40 TDP1 CPT: 5.0%; FEN1 inhibitor: -3.1%

How did Cc1cc(NC(=O)CCc2ccc(C)o2)no1 do in these assays?
DT40 TDP1 CPT: -2.4%; FEN1 inhibitor: 3.4%

How did CN(Cc1cccs1)C(=O)COc1cccc(-n2cnnn2)c1 do in these assays?
DT40 TDP1 CPT: -10.9%; FEN1 inhibitor: -3.5%

How did COc1ccc(C2C(=O)N(C3CCCCC3)CC(=O)N2C2CCCC2)cc1 (stereo not given) do in these assays?
DT40 TDP1 CPT: -13.2%; FEN1 inhibitor: -2.8%

Results for Cc1nn(CC(=O)Nc2ccccn2)c(C)c1[N+](=O)[O-] ?
DT40 TDP1 CPT: -2.2%; FEN1 inhibitor: 3.0%

How did CCOC(=O)c1cnc2ccc(C(=O)OC)cc2c1Nc1cccc(C(=O)O)c1 do in these assays?
DT40 TDP1 CPT: 20.3%; FEN1 inhibitor: -1.9%

Among those listed so far, these have a nitro group on carbon:
How did Cn1cc([N+](=O)[O-])c(C(=O)NCc2cc3ccccc3[nH]2)n1 do in these assays?
DT40 TDP1 CPT: -4.4%; FEN1 inhibitor: 11.6%

Results for Cc1nn(CC(=O)Nc2ccccn2)c(C)c1[N+](=O)[O-] ?
DT40 TDP1 CPT: -2.2%; FEN1 inhibitor: 3.0%

(next part)
Results for Nc1nc(CN2CCCCC2)cs1 ?
DT40 TDP1 CPT: -2.2%; FEN1 inhibitor: -13.4%

How did CCCCC(=O)OCc1nc(N)nc(Nc2ccccc2C)n1 do in these assays?
DT40 TDP1 CPT: -22.0%; FEN1 inhibitor: 12.9%

How did Cc1ncsc1CCOC(=O)c1ccc(Cl)cc1 do in these assays?
DT40 TDP1 CPT: -15.6%; FEN1 inhibitor: 9.3%

Results for O=C(Nc1ccc(-n2ccc(C(F)(F)F)n2)cc1)c1cccs1 ?
DT40 TDP1 CPT: inconclusive; FEN1 inhibitor: -5.0%

Results for Cc1ccn2c(NC(=O)c3ccccc3)c(-c3cccs3)nc2c1 ?
DT40 TDP1 CPT: -31.5%; FEN1 inhibitor: 6.7%

How did CCn1cc([N+](=O)[O-])c(C(=O)Nc2ccc3c(c2)OCCO3)n1 do in these assays?
DT40 TDP1 CPT: -22.1%; FEN1 inhibitor: -8.5%

Results for COc1ccc(S(=O)(=O)NCC2(N3CCOCC3)CCCCC2)cc1OC ?
DT40 TDP1 CPT: -8.0%; FEN1 inhibitor: -0.1%

Results for COc1ccc(NC(=O)NCc2ccccn2)cc1 ?
DT40 TDP1 CPT: 1.1%; FEN1 inhibitor: 2.5%

Results for CC1CN(S(=O)(=O)c2ccc(C(=O)Nc3nnc(-c4ccco4)o3)cc2)CC(C)O1 (stereo not given) ?
DT40 TDP1 CPT: 23.1µM*; FEN1 inhibitor: 12.0%

What do the screens show for `COc1ccc(C(=O)Oc2ccc(C(C)=O)cc2)c(OC)c1`?
DT40 TDP1 CPT: 3.9%; FEN1 inhibitor: -8.0%

How did Cc1ccc2nc(-c3ccccc3)cc(C(=O)NNC(=O)c3csc(N4CCOCC4)n3)c2c1 do in these assays?
DT40 TDP1 CPT: inconclusive; FEN1 inhibitor: 0.1%

Results for CCOC(=O)C1CCN(S(=O)(=O)Cc2ccc(Cl)cc2)CC1 ?
DT40 TDP1 CPT: -0.3%; FEN1 inhibitor: -4.6%

Results for COc1cccc(CNC(=O)CCC2CCCN(C/C=C/c3ccccc3OC)C2)c1 (stereo not given) ?
DT40 TDP1 CPT: inconclusive; FEN1 inhibitor: -1.4%

How did Cc1ccc(/C=C2\Oc3c(ccc(O)c3CN3CCN(CCO)CC3)C2=O)cc1 do in these assays?
DT40 TDP1 CPT: -5.9%; FEN1 inhibitor: -7.7%

What do the screens show for `O=C(Cn1ccc([N+](=O)[O-])n1)NCc1cccs1`?
DT40 TDP1 CPT: 9.0%; FEN1 inhibitor: -14.2%

What do the screens show for `CCCCN(C(=O)CSc1nnc(-c2ccc(OC)cc2)n1C(C)C)c1c(N)n(Cc2ccccc2)c(=O)[nH]c1=O`?
DT40 TDP1 CPT: -19.5%; FEN1 inhibitor: 4.7%

How did O=C(NCC(c1ccco1)N1CCc2ccccc21)c1ccccc1Br (stereo not given) do in these assays?
DT40 TDP1 CPT: 20.6µM*; FEN1 inhibitor: -2.4%

What do the screens show for `CCN(CC)C(=O)Cn1c(=O)n(CCC(=O)Nc2ccc(F)cc2)c(=O)c2sccc21`?
DT40 TDP1 CPT: -11.1%; FEN1 inhibitor: -2.9%

Results for O=C(CCCn1ncn2c(cc3occc32)c1=O)N1CCc2ccccc2C1 ?
DT40 TDP1 CPT: -8.1%; FEN1 inhibitor: -1.8%

How did COC(=O)C1C/C(=N\NS(=O)(=O)c2ccc(C)cc2)c2ccsc2C1 (stereo not given) do in these assays?
DT40 TDP1 CPT: inconclusive; FEN1 inhibitor: -6.0%

How did CC(C)[C@@H](N)C(=O)N/N=C/c1ccc2nccnc2c1 do in these assays?
DT40 TDP1 CPT: -24.9%; FEN1 inhibitor: 6.3%

How did Cc1ccc(N(CC2CO2)S(=O)(=O)c2ccc([N+](=O)[O-])cc2)cc1 (stereo not given) do in these assays?
DT40 TDP1 CPT: inconclusive; FEN1 inhibitor: 9.2%

Results for COc1cc(C(=O)N2CCN(c3ccccc3OC)CC2)c([N+](=O)[O-])cc1OC ?
DT40 TDP1 CPT: -24.1%; FEN1 inhibitor: -3.1%

Results for CNC(=O)c1sc(Nc2cc(C)ccc2C)nc1C ?
DT40 TDP1 CPT: 17.5%; FEN1 inhibitor: -7.4%

What do the screens show for `Cc1ccn2c(=O)nc(SCC(=O)N3CCCC3)nc2c1`?
DT40 TDP1 CPT: 10.8%; FEN1 inhibitor: -5.5%

How did CC(C)(C)C(=O)NC(=S)NCc1ccccc1 do in these assays?
DT40 TDP1 CPT: -4.6%; FEN1 inhibitor: -1.5%

Results for COc1ccc(NC(=O)c2ccc3[nH]c(C)c(C)c3c2)c(OC)c1 ?
DT40 TDP1 CPT: 23.1µM*; FEN1 inhibitor: 9.1%

What do the screens show for `Cc1ccccc1N1C(=O)CC(N2CCN(C(=O)c3ccco3)CC2)C1=O` (stereo not given)?
DT40 TDP1 CPT: -6.7%; FEN1 inhibitor: 18.9%

What do the screens show for `CC(=O)Nc1ccc(S(=O)(=O)NNC(=S)NCc2ccco2)cc1`?
DT40 TDP1 CPT: inconclusive; FEN1 inhibitor: 17.4%

How did CCOC(=O)Cc1csc(CC(N)=O)n1 do in these assays?
DT40 TDP1 CPT: 4.0%; FEN1 inhibitor: 1.3%

How did CCOC(CNc1cc(C)nc2c(-c3ccccc3OC)c(C)nn12)OCC do in these assays?
DT40 TDP1 CPT: inconclusive; FEN1 inhibitor: 13.6%

What do the screens show for `COc1ccccc1C(=O)NCCC(=O)N1CCCC(C)C1` (stereo not given)?
DT40 TDP1 CPT: -4.5%; FEN1 inhibitor: -4.1%

What do the screens show for `OC(COc1ccc(Br)cc1)CN1CCCC1` (stereo not given)?
DT40 TDP1 CPT: -4.4%; FEN1 inhibitor: 0.7%

Structural class, those above with four or more nitrogen atoms (15)
How did Cn1cc([N+](=O)[O-])c(C(=O)NCc2cc3ccccc3[nH]2)n1 do in these assays?
DT40 TDP1 CPT: -4.4%; FEN1 inhibitor: 11.6%

How did CN(Cc1cccs1)C(=O)COc1cccc(-n2cnnn2)c1 do in these assays?
DT40 TDP1 CPT: -10.9%; FEN1 inhibitor: -3.5%

Results for Cc1nn(CC(=O)Nc2ccccn2)c(C)c1[N+](=O)[O-] ?
DT40 TDP1 CPT: -2.2%; FEN1 inhibitor: 3.0%

How did CCCCC(=O)OCc1nc(N)nc(Nc2ccccc2C)n1 do in these assays?
DT40 TDP1 CPT: -22.0%; FEN1 inhibitor: 12.9%

How did CCn1cc([N+](=O)[O-])c(C(=O)Nc2ccc3c(c2)OCCO3)n1 do in these assays?
DT40 TDP1 CPT: -22.1%; FEN1 inhibitor: -8.5%

Results for CC1CN(S(=O)(=O)c2ccc(C(=O)Nc3nnc(-c4ccco4)o3)cc2)CC(C)O1 (stereo not given) ?
DT40 TDP1 CPT: 23.1µM*; FEN1 inhibitor: 12.0%

How did Cc1ccc2nc(-c3ccccc3)cc(C(=O)NNC(=O)c3csc(N4CCOCC4)n3)c2c1 do in these assays?
DT40 TDP1 CPT: inconclusive; FEN1 inhibitor: 0.1%

What do the screens show for `O=C(Cn1ccc([N+](=O)[O-])n1)NCc1cccs1`?
DT40 TDP1 CPT: 9.0%; FEN1 inhibitor: -14.2%

What do the screens show for `CCCCN(C(=O)CSc1nnc(-c2ccc(OC)cc2)n1C(C)C)c1c(N)n(Cc2ccccc2)c(=O)[nH]c1=O`?
DT40 TDP1 CPT: -19.5%; FEN1 inhibitor: 4.7%

What do the screens show for `CCN(CC)C(=O)Cn1c(=O)n(CCC(=O)Nc2ccc(F)cc2)c(=O)c2sccc21`?
DT40 TDP1 CPT: -11.1%; FEN1 inhibitor: -2.9%

Results for O=C(CCCn1ncn2c(cc3occc32)c1=O)N1CCc2ccccc2C1 ?
DT40 TDP1 CPT: -8.1%; FEN1 inhibitor: -1.8%

How did CC(C)[C@@H](N)C(=O)N/N=C/c1ccc2nccnc2c1 do in these assays?
DT40 TDP1 CPT: -24.9%; FEN1 inhibitor: 6.3%

What do the screens show for `Cc1ccn2c(=O)nc(SCC(=O)N3CCCC3)nc2c1`?
DT40 TDP1 CPT: 10.8%; FEN1 inhibitor: -5.5%

What do the screens show for `CC(=O)Nc1ccc(S(=O)(=O)NNC(=S)NCc2ccco2)cc1`?
DT40 TDP1 CPT: inconclusive; FEN1 inhibitor: 17.4%

How did CCOC(CNc1cc(C)nc2c(-c3ccccc3OC)c(C)nn12)OCC do in these assays?
DT40 TDP1 CPT: inconclusive; FEN1 inhibitor: 13.6%

An excerpt, and most or all hits are left out here.
